Assay outcomes as filed in PubChem BioAssay.
PD-1 reversal: activators reversing PD-1 mediated T-cell inhibition; activation, % (test concentration not listed); 29,000 tested, under 10 active; AID 2316; primary human CD4 T cells, PD-L1 beads, CellTiter-Glo 96 h;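 active means replicate mean of 50% or more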;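 further: 0% = median vehicle wells and 100% = positive control; 100 nL library stock added to about 50 µL; numbers are from one replicate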
Hedgehog inh: blocks Sonic Hedgehog signaling; Shh-LIGHT2 Gli-luciferase reporter, 30 h; inhibition, % (concentration not given with the values); actives 2.1% (n = 22,000); AID 2313;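 active means replicate mean of 65% or more; inconclusive means mean lower but half the replicates past it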;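 further: pathway switched on by Shh-conditioned medium diluted 1 in 25 in low serum; 100 nL library stock added to about 40 µL; 0% = median of neutral wells and 100% = positive control level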
MITF inhib: inhibitors of MITF | TRPM1 promoter luciferase, luminescence, 24 h | inhibition, % (test concentration not listed) | actives 0.28% (n = 37,000);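 active means most replicates at 85% or more, or half of them and the mean; inconclusive means half reach 85% but not the mean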;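 further: human melanocyte line stably carrying TRPM1 promoter luciferase reporter; 0% = vehicle wells and 100% = a positive control; the first replicate is given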
YB-1 expression: YB-1 expression inhibition; U2OS, qRT-PCR YB-1 vs CDIP delta delta Cp, 16 h; stronger effect = higher value; zero = DMSO, each unit about twofold; delta delta Cp (YB-1 minus CDIP) (concentration not given with the values); actives 0.37% (n = 30,000);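 active means delta delta Cp rounded down to an integer at or above 3, about 3 SD of DMSO wells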;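 further: higher means less YB-1 transcript or more CDIP transcript relative to DMSO; stock transfer was 100 nL into about 100 µL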
An asterisk follows results filed as active; ? = inconclusive; . = no result given. An excerpt, so the mix of outcomes need not match the whole.

structure,MITF inhib,Hedgehog inh,PD-1 reversal,YB-1 expression
Cc1cc(C)c(C)c(OCC(=O)NCCN2CCOCC2)c1,-8,.,2.2,.
CCOC(=O)C(C)Oc1cc(O)c2c(=O)cc(-c3ccccc3)oc2c1 (stereo not drawn),-8,-52,2.8,-0.65
C[C@H]1CN([C@@H](C)CO)C(=O)c2cc(NC(=O)Nc3ccccc3)ccc2O[C@H]1CN(C)S(C)(=O)=O,-20,-21,0.3,0.76
Cc1ccc2nc(-c3ccc(NC(=O)CS(=O)(=O)Cc4ccccc4)cc3)sc2c1,-18,.,2.0,.
C[C@@H]1CN([C@H](C)CO)C(=O)c2cc(NS(=O)(=O)c3ccc(F)cc3)ccc2O[C@H]1CN(C)CC1CCCCC1,5,.,-0.4,-0.023
C[C@H](CO)N1C[C@H](C)[C@@H](CN(C)S(=O)(=O)c2ccccc2)Oc2c(NC(=O)c3cnccn3)cccc2C1=O,-29,-83,2.3,-0.12
COc1ccc(-c2nnc(SCC(=O)n3c4c(c5c3CCCC5)CCCC4)n2C)cc1,-8,.,-3.2,.
Cc1ccc(NC(=O)CSc2n[nH]c(-c3ccco3)n2)cc1,17,.,-2.0,.
Cc1ccc(S(=O)(=O)Nc2ccc3c(c2)C(=O)N([C@H](C)CO)C[C@@H](C)[C@@H](CN(C)S(=O)(=O)c2ccccc2)O3)cc1,-7,-1,0.4,-0.082
COc1ccc(NC(=O)N(C)C[C@H]2Oc3ccc(N(C)C)cc3CC(=O)N([C@H](C)CO)C[C@H]2C)cc1,-4,.,.,0.084

structure,MITF inhib,Hedgehog inh,PD-1 reversal,YB-1 expression
Cc1ccc(S(=O)(=O)Nc2ccc3c(c2)CC(=O)N([C@@H](C)CO)C[C@H](C)[C@@H](CN(C)Cc2ccc(C(=O)O)cc2)O3)cc1,7,-3,.,0.13
CC(C)NS(=O)(=O)c1ccc(OCC(N)=O)cc1,-6,.,0.7,.
C[C@@H]1CN([C@H](C)CO)C(=O)Cc2cc(N(C)C)ccc2O[C@@H]1CN(C)C(=O)Nc1ccc(F)cc1,4,22,-0.5,0.06
CC(C)CC(NC(=O)Cc1ccsc1)C(=O)NN (stereo not drawn),17,.,1.8,-0.9
C[C@H]1CN([C@@H](C)CO)C(=O)Cc2cc(NC(=O)Nc3ccc4c(c3)OCO4)ccc2O[C@H]1CN(C)C(=O)Nc1ccc2c(c1)OCO2,1,?,0.3,0.17
OC(c1ccccc1)c1oc2ccccc2c1-c1cnn(-c2ccccc2)c1 (stereo not drawn),70,98*,-13,-0.29
Cc1noc(C)c1S(=O)(=O)N(C)C[C@H]1OCCCC[C@@H](C)Oc2ccc(NS(=O)(=O)c3cccs3)cc2C(=O)N([C@H](C)CO)C[C@@H]1C,-6,.,0.4,0.099
Cc1cc(C(=O)Nc2cccc3c2O[C@@H](CN(C)S(C)(=O)=O)[C@@H](C)CN([C@H](C)CO)C3=O)n(C)n1,-2,-28,1.1,0.22
COc1ccc(S(=O)(=O)N(C)C[C@H]2Oc3ccc(NC(=O)C4CCCCC4)cc3CC(=O)N([C@H](C)CO)C[C@H]2C)cc1,8,18,-0.1,0.074
C[C@H](CO)N1C[C@H](C)[C@H](CN(C)S(=O)(=O)c2ccc(Cl)cc2)Oc2ccc(NC(=O)Nc3ccccc3)cc2CC1=O,20,34,.,-0.051

structure,MITF inhib,Hedgehog inh,PD-1 reversal,YB-1 expression
C[C@H](CO)N1C[C@H](C)[C@@H](CN(C)Cc2ccc(C(=O)O)cc2)Oc2ccc(NS(=O)(=O)c3ccc(F)cc3)cc2C1=O,0,-18,.,0.072
C[C@H](CO)N1C[C@H](C)[C@H](CN(C)C(=O)Nc2ccc(F)cc2)Oc2ccc(NC(=O)Nc3ccc(F)cc3)cc2CC1=O,-16,-8,0.7,-0.3
CC(=O)Nc1ccc(NC(=O)CSC2=NC(c3ccccc3)CC(=O)N2)cc1 (stereo not drawn),2,.,0.0,.
C[C@@H]1CCCCO[C@H](CN(C)C(=O)NC2CCCCC2)[C@@H](C)CN([C@H](C)CO)C(=O)c2cc(NC(=O)Nc3ccccc3)ccc2O1,9,-6,-0.5,0.19
O=C(NC(=S)Nc1ccccc1Cl)c1cnn2c(C(F)(F)F)cc(C(F)(F)F)nc12,14,3,0.5,0.18
C[C@@H]1CN([C@H](C)CO)C(=O)Cc2cc(NS(=O)(=O)c3ccc(Cl)cc3)ccc2O[C@H]1CN(C)Cc1ccc(C(=O)Nc2ccccc2N)cc1,-6,.,-1.7,-0.36
C[C@H]1CN([C@@H](C)CO)C(=O)c2cc(NC(=O)c3ccncc3)ccc2O[C@H]1CN(C)C(=O)Nc1ccc(F)cc1,-10,.,2.2,-0.34
CNC[C@@H]1Oc2ccc(NC(=O)Nc3ccc(C(F)(F)F)cc3)cc2CC(=O)N([C@H](C)CO)C[C@H]1C,10,-10,.,-0.063
C[C@@H]1CN([C@@H](C)CO)C(=O)c2cccc(NS(C)(=O)=O)c2O[C@H]1CN(C)C,0,-13,.,0.23
CSc1ncnc2nc[nH]c12,-25,-9,3.0,0.25

structure,MITF inhib,Hedgehog inh,PD-1 reversal,YB-1 expression
Cc1noc(C)c1NC(=O)Nc1cccc2c1O[C@H](CN(C)S(=O)(=O)c1ccc(Cl)cc1)[C@H](C)CN([C@@H](C)CO)C2=O,-2,25,0.5,-0.13
C[C@@H]1CN([C@H](C)CO)C(=O)c2cccc(NC(=O)Nc3ccc(C(F)(F)F)cc3)c2O[C@@H]1CN(C)Cc1ccc(C(F)(F)F)cc1,6,33,-3.3,0.24
C[C@@H]1OC(OC[C@H]2O[C@@H](Oc3cc(O)c4c(=O)cc(-c5ccc(O)c(O)c5)oc4c3)[C@H](O)[C@@H](O)[C@@H]2O)[C@H](O)[C@H](O)[C@H]1O (stereo partly drawn),?,-25,-0.1,-0.15
COc1ccc(NC(=O)N(C)C[C@@H]2Oc3c(NC(=O)Nc4ccc(F)cc4)cccc3C(=O)N([C@H](C)CO)C[C@H]2C)cc1,-3,6,-0.6,0.44
C[C@@H]1CCCCO[C@H](CN(C)S(C)(=O)=O)[C@@H](C)CN([C@H](C)CO)C(=O)c2cc(NS(=O)(=O)c3cccs3)ccc2O1,-4,-21,.,-0.045
C[C@@H]1CN([C@H](C)CO)C(=O)Cc2cc(NS(=O)(=O)c3cn(C)cn3)ccc2O[C@@H]1CN(C)S(=O)(=O)c1cccs1,3,-14,2.0,-0.32
Cc1cccc(-n2c(SCC(=O)Nc3ccc(C)cc3Br)nnc2-c2ccncc2)c1,6,.,-1.1,.
C[C@@H]1CN([C@H](C)CO)C(=O)c2cccc(NS(=O)(=O)c3ccc(Cl)cc3)c2O[C@@H]1CN(C)CC1CCCCC1,-11,18,-2.5,0.39
CC(C)NC(=O)N(C)C[C@H]1Oc2c(NS(=O)(=O)c3ccc(F)cc3)cccc2C(=O)N([C@H](C)CO)C[C@@H]1C,0,14,1.3,-0.41
C[C@H](CO)N1C[C@H](C)[C@H](CN(C)C(=O)Nc2ccc(F)cc2)Oc2c(NC(=O)C3CCCCC3)cccc2C1=O,15,-3,-0.8,-0.16

Compound profiles, from the list above. Values in the order: MITF inhib, Hedgehog inh, PD-1 reversal, YB-1 expression
CSc1ncnc2nc[nH]c12 across the screens: -25, -9, 3.0, 0.25
C[C@H]1CN([C@@H](C)CO)C(=O)c2cc(NC(=O)c3ccncc3)ccc2O[C@H]1CN(C)C(=O)Nc1ccc(F)cc1 across the screens: -10, ., 2.2, -0.34
Cc1ccc(S(=O)(=O)Nc2ccc3c(c2)CC(=O)N([C@@H](C)CO)C[C@H](C)[C@@H](CN(C)Cc2ccc(C(=O)O)cc2)O3)cc1 across the screens: 7, -3, ., 0.13
CCOC(=O)C(C)Oc1cc(O)c2c(=O)cc(-c3ccccc3)oc2c1 (stereo not drawn) across the screens: -8, -52, 2.8, -0.65
CNC[C@@H]1Oc2ccc(NC(=O)Nc3ccc(C(F)(F)F)cc3)cc2CC(=O)N([C@H](C)CO)C[C@H]1C across the screens: 10, -10, ., -0.063

(further entries)
structure,MITF inhib,Hedgehog inh,PD-1 reversal,YB-1 expression
COc1cc2c(cc1OC)CN(C(=O)CSc1ncnc3sc4c(c13)CCC(C)C4)CC2 (stereo not drawn),8,.,1.7,.
C[C@@H]1CN([C@@H](C)CO)C(=O)c2cccc(NS(=O)(=O)c3ccccc3)c2O[C@H]1CN(C)S(=O)(=O)c1ccc(F)cc1,-6,-26,1.7,0.013
O=C(CCn1cccc(C(F)(F)F)c1=O)Sc1ccccc1,2,-23,2.0,0.15
O=[N+]([O-])c1ccc(O)c(Nc2ncnc3ccccc23)c1,-23,.,0.2,.
C[C@H](CO)N1C[C@H](C)[C@H](CN(C)Cc2ccc(C(F)(F)F)cc2)Oc2ccc(NC(=O)CCC(F)(F)F)cc2CC1=O,-7,.,.,-0.65
C[C@@H]1CN([C@@H](C)CO)C(=O)c2cccc(NC(=O)Nc3ccc(C(F)(F)F)cc3)c2O[C@@H]1CN(C)S(C)(=O)=O,-11,-25,-0.5,0.065
Cc1noc(C)c1NC(=O)Nc1cccc2c1O[C@H](CN(C)Cc1ccncc1)[C@@H](C)CN([C@H](C)CO)C2=O,2,-21,-1.0,0.19
CCCCCCCCCCCCCC(=O)N[C@H](C)[C@@H](O)c1ccccc1,0,-58,2.3,0.66
C[C@H](CO)N1C[C@H](C)[C@H](CN(C)Cc2ccc(Oc3ccccc3)cc2)Oc2ccc(NC(=O)Nc3cccc4ccccc34)cc2CC1=O,-11,8,-0.6,-0.29
C[C@@H]1CN([C@H](C)CO)C(=O)c2cccc(NC(=O)Nc3ccc(C(F)(F)F)cc3)c2O[C@@H]1CN(C)Cc1ccccc1,-9,35,-5.8,0.32

structure,MITF inhib,Hedgehog inh,PD-1 reversal,YB-1 expression
C[C@H]1CN([C@@H](C)CO)C(=O)Cc2cc(NC(=O)Cn3cnnn3)ccc2O[C@H]1CN(C)S(=O)(=O)c1ccccc1,-2,-47,.,-0.072
C[C@H](CO)N1C[C@H](C)[C@H](CN(C)S(C)(=O)=O)Oc2ccc(NS(=O)(=O)c3cccs3)cc2CC1=O,-9,-101,0.3,0.44
CCCN(CCC)S(=O)(=O)c1ccc(C(=O)Nc2cccc(SC)c2)cc1,11,30,1.3,0.16
COc1ccc(/C=C/c2cc(O)cc(O[C@@H]3O[C@H](CO)[C@@H](O)[C@H](O)[C@H]3O)c2)cc1,19,-27,.,-0.48
COc1ccccc1NC(=O)CSc1ncccn1,-8,.,1.5,.
C[C@@H]1CN([C@@H](C)CO)C(=O)c2cccc(NC(=O)Nc3ccc(C(F)(F)F)cc3)c2O[C@H]1CN(C)C,7,-39,-4.7,0.66
Cc1noc(C)c1NC(=O)Nc1cccc2c1O[C@@H](CN(C)S(=O)(=O)c1ccc(F)cc1)[C@@H](C)CN([C@H](C)CO)C2=O,4,20,0.4,1.2
C[C@H](CO)N1C[C@H](C)[C@H](CN(C)C)Oc2ccc(NC(=O)NC3CCCCC3)cc2CC1=O,7,-14,.,0.069
COc1ccc(S(=O)(=O)N(C)C[C@H]2Oc3ccc(NS(=O)(=O)c4ccc(F)cc4)cc3C(=O)N([C@H](C)CO)C[C@@H]2C)cc1,5,.,-1.6,0.015
COc1cccc(NC(=O)C(C)N(c2cc(C)cc(C)c2)S(C)(=O)=O)c1 (stereo not drawn),2,.,-0.7,.

structure,MITF inhib,Hedgehog inh,PD-1 reversal,YB-1 expression
O=C(Oc1ccccc1)C(c1ccccc1)c1ccccc1,4,48,-1.1,0.072
Cc1ccc(S(=O)(=O)N(C)C[C@H]2Oc3c(NC(=O)c4ccc(-c5nccs5)cc4)cccc3C(=O)N([C@H](C)CO)C[C@H]2C)cc1,12,4,-2.6,-0.18
C[C@H]1CN([C@@H](C)CO)C(=O)Cc2cc(NC(=O)Nc3ccccc3)ccc2O[C@H]1CN(C)S(=O)(=O)c1cccs1,0,-13,0.0,-0.056
Cc1noc(C)c1S(=O)(=O)Nc1ccc2c(c1)C(=O)N([C@H](C)CO)C[C@H](C)[C@H](CN(C)C)OCCCC[C@@H](C)O2,-3,.,1.0,0.34
CCOc1ccccc1NC(=O)NCc1cccnc1,1,.,0.2,.
C[C@@H]1CN([C@H](C)CO)C(=O)c2cccc(NS(=O)(=O)c3ccc(Cl)cc3)c2O[C@H]1CN(C)Cc1ccc(Oc2ccccc2)cc1,20,-11,4.6,-0.31
Cc1noc(C)c1S(=O)(=O)Nc1ccc2c(c1)C(=O)N([C@H](C)CO)C[C@H](C)[C@H](CN(C)C(=O)c1ccncc1)OCCCC[C@@H](C)O2,2,.,-0.6,-0.54
COc1ccc(NC(=O)N(C)C[C@H]2Oc3c(NS(=O)(=O)c4cn(C)cn4)cccc3C(=O)N([C@H](C)CO)C[C@@H]2C)cc1,-9,?,3.3,1.1
COc1ccc(S(=O)(=O)Nc2ccc3c(c2)C(=O)N([C@@H](C)CO)C[C@H](C)[C@@H](CN(C)S(=O)(=O)c2ccc(Cl)cc2)O3)cc1,11,.,0.6,-0.29
